Screening data (PubChem BioAssay)
Ecoli rRNA inh = inhibits bacterial ribosomal RNA function over humanized ribosomes; AID 720706; 350,000 compounds, 1.6% hits; E. coli WT GFP vs humanized-ribosome RFP mutants, fluorescence, 24 h; hits give low values; DMSO median 0, no signal -100; GFP signal change (wild-type ribosome), % (test concentration not listed);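 active = significant combined selectivity score with lowered wild-type GFP, culture density cut under 30%, mutant RFP and density less affected; inactive = any of these conditions unmet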; note: one replicate is shown; some compounds called inactive have numbers as strong as hits
Beta cell apopt = beta cell apoptosis inhibition | INS-1E cytokine-induced death, ATP luminescence, 48 h; percent of positive-control rescue, neutral wells zero | protection from apoptosis, % (no concentration beside the values) | 300,000 compounds, 0.8% hits | AID 435005;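 active = all replicates at 75% or more, or half of them and the mean; inconclusive = half reach 75% but not the mean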;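 note: 0% = cytokine-treated negative control wells and 100% = positive control rescue; higher means more ATP so stronger rescue from cytokine killing; wells of about 40 µL received 100 nL stock; the first replicate is given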
ALR H2O2 inh = inhibitors of human sulfhydryl oxidase ALR; 290,000 compounds, 3.8% hits; AID 485317; purified ALR, DTT oxidation, H2O2 HRP-luminol luminescence; P55789; inhibition, % (concentration not given with the values);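 active = mean and each replicate at 75% or more; inconclusive = only one of the two met; inactive = neither met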;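 note: stock transfer was 7.5 nL into about 7.5 µL; 0% = neutral wells and 100% = wells with inactivated enzyme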
Target sequence (P55789 whole entry, looked up): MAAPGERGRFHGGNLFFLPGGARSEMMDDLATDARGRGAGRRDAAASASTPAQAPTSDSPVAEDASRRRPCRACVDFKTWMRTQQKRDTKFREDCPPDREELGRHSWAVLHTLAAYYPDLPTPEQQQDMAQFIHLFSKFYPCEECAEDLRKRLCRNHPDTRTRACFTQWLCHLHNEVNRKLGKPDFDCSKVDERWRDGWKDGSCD
RanGTP-Imp inh = inhibitors of RanGTP-importin-beta interaction, primary screen, biochemical, FRET, CFP-Ran, YFP-importin-beta, homogeneous; 300,000 compounds, 1.1% hits; inhibition, % (test concentration not listed); cell-free CFP-Ran/YFP-importin-beta FRET ratio;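 active = most replicates above 15%; inconclusive = exactly half above 15%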;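 note: 0% = DMSO wells and 100% = Ran loaded with GDP instead of GTP; wells of about 40 µL received 100 nL stock; the first replicate is given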
FGF22 binding = shifts melting point of recombinant human FGF22. Q9HCT0. recombinant FGF22 thermal shift, SYPRO orange fluorescence; percent of sucrose octasulfate shift, DMSO zero. calls only at 9.99 µM. 340,000 compounds, 1.5% hits;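 active = melting point raised past a set limit in the mean and every replicate; inconclusive = no clear call; three in four hits are not shown here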
Target sequence (Q9HCT0 whole entry, looked up): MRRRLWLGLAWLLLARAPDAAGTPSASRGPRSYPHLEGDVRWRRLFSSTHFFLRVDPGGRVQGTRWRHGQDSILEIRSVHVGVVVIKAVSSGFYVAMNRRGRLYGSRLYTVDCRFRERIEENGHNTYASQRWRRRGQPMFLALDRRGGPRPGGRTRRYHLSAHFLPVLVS
AF4-AF9 inh = inhibitors of human MLL-AF4/AF9 interaction | P42568 | AlphaScreen, biotin-AF4 peptide binding to FLAG-AF9 | inhibition, % at 10 µM | 350,000 compounds, 0.47% hits | AID 651704;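 active = every replicate reaching a set inhibition limit, whatever the replicate mean, cut at about 25% in these data; inconclusive = mean inhibition reaches that limit but some replicates miss it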;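 note: 0% = plate neutral control median and 100% = total signal loss; the record names both 10 and 1 µM as test concentration; the first replicate is given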
Target sequence (P42568 whole entry, looked up): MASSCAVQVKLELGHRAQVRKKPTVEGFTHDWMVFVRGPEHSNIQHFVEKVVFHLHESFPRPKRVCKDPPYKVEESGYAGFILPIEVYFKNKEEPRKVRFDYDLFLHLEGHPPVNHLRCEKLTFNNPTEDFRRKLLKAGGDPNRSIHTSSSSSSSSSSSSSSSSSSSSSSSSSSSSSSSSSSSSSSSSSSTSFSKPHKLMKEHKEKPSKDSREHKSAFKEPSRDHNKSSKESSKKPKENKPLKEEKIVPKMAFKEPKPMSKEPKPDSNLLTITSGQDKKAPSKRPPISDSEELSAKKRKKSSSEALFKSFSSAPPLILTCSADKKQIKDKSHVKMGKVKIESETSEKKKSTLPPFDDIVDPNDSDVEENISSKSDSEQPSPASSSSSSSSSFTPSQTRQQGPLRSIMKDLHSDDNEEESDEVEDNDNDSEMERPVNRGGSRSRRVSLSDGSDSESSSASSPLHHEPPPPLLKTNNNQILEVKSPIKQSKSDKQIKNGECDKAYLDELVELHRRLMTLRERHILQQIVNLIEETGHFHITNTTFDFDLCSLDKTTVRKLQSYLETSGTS
T cruzi repl = T. cruzi replication inhibition; AID 1885; T. cruzi beta-gal in NIH3T3, luminescence, 90 h; inhibition, % (test concentration not listed); 300,000 compounds, 1.4% hits;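 active = mean inhibition across valid replicates above about 55%, limit read from the data; inconclusive = mean below that limit but half or more replicates reach it; inactive = mean below it, under half of replicates reach it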;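 note: signal also drops with host cell toxicity which is not excluded here; 0% = plate median of DMSO wells and 100% = zero luminescence signal; higher percent means less beta-gal luminescence so fewer parasites; stock transfer was 50 nL into about 50 µL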
Calb FLC = affects C. albicans growth with fluconazole; C. albicans CaCi-2 (fluconazole-resistant clinical isolate) + fluconazole, Alamar Blue growth, 48 h; growth inhibition, % (test concentration not listed); 300,000 compounds, 0.57% hits;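 active = most replicates above 75%; inconclusive = exactly half above 75%; inactive = most below 75%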;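 note: all wells also contain fluconazole at 8 µg/ml as a sub-toxic cotreatment; 0% = median of DMSO wells and 100% = median of geldanamycin control wells; wells of about 8 µL received 7.5 nL stock; the first replicate is given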
Ecoli rRNA inh OD600 = further read-out of Ecoli rRNA inh, marked with its call; OD600 change, %; measured here: OD600 growth;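 optical density of the mix in the first replicate; 0 = DMSO median and -100 = no signal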
Ecoli rRNA inh RFP = second read-out of Ecoli rRNA inh, no call of its own (marks repeat the call); RFP signal change, %; measured here: RFP humanized mutant strains;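 first replicate; 0 = DMSO median and -100 = no signal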
Active calls of the source: *; i = inactive; ? = inconclusive; . = not tested or not shown. This is a subset; rates above refer to the full screens.

SMILES	Ecoli rRNA inh	Ecoli rRNA inh OD600	Ecoli rRNA inh RFP	Beta cell apopt	ALR H2O2 inh	RanGTP-Imp inh	FGF22 binding	AF4-AF9 inh	T cruzi repl	Calb FLC
COC/C=C/C1=CC2=CC(=O)C(C)(OC(=O)c3cnc4ccccc4n3)C(=O)C2=CN1Cc1ccco1 (stereo not given)	7	10	11	-4	-19	-2.7	i	-3.2	-7	2
COc1ccc(C(=O)N2CCc3c([nH]c4ccccc34)C2C(F)(F)F)cc1 (stereo not given)	-21	3	9.2	-1	2	?	i	1.5	14	1
COC(=O)c1sc2nc(C)cc(-c3ccccc3)c2c1N	.	.	.	.	2	-0.5	.	.	14	0
CCOP(=O)(c1c(F)c(F)c(F)c(F)c1F)C1(O)CCCCC1 (stereo not given)	.	.	.	-1	5	2.3	.	.	-1	-3
COc1ccc(N=Cc2c(O)[nH]c3ccccc23)cc1OC	.	.	.	6	99*	-0.2	.	.	-18	?
CSc1ccc(CN2CCN(C3CCCC3)C(CCO)C2)cc1 (stereo not given)	28	16	3.9	-7	-3	6.4	i	0.1	?	-7
COCCN(C(=S)Nc1c(C)cccc1C)C(C)c1ccco1 (stereo not given)	-1	-4	-1.5	-1	-6	1.9	i	-9.5	-10	3
CCOC(=O)CCSc1nc(-c2ccc3c(c2)OCO3)cc(C(F)(F)F)c1C#N	7	-1	2.5	1	26	0.3	i	-2.2	-12	2
Cc1ccc(-c2nnc(-n3nc(C)cc3C)c3ccccc23)cc1	.	.	.	-6	-1	0.3	.	.	13	-3
Cc1noc(/C=C/N(C)C)c1S(=O)(=O)N1CCCC(C(=O)NC2CCCCC2)C1 (stereo not given)	-5	3	-2.1	-6	15	0.1	i	-9.0	62*	-2
Cc1c(C(=O)n2cnc3ccccc32)cccc1[N+](=O)[O-]	11	19	4.5	-12	-10	-1.9	i	-3.6	1	-8
CCOCCCN(Cc1ccco1)C(=O)c1cc2c(=O)[nH]c3ccc(C)cc3c2s1	-17	-12	3.3	3	45	5.9	i	-0.1	25	-2
CC1CCN(c2ccc(NC(=O)Cc3ccccc3)cc2)CC1	10	6	17	-6	-9	0.8	i	-0.1	14	-6
Cc1cc(C)cc(N(CC(=O)N2CCC(C)CC2)S(C)(=O)=O)c1	.	.	.	-7	-22	0.0	.	.	-4	-1
c1ccc(-c2csc(N3CCc4ccccc4C3)n2)cc1	.	.	.	0	-16	-1.7	.	.	-14	3
Cc1ccc(S(=O)(=O)CCc2nc3ccccc3[nH]2)cc1	3	-5	-0.1	-6	.	0.6	i	2.4	-3	24
COc1ccc2oc(C(=O)N(C)CCOc3ccc(Cl)cc3)c(C)c2c1	-14	-32	-1.9	-2	2	-0.3	i	-0.4	0	1
S=C(Nc1ccccc1)Nn1cnnc1	.	.	.	-4	.	5.4	.	.	-5	-19
CCOC(=O)Nc1ccccc1C(=O)N1CCOCC1	.	.	.	-6	2	-0.8	.	.	11	6
CC(Oc1ccc(Cl)cc1Cl)C(=O)Nc1ccc(OCC(=O)O)cc1 (stereo not given)	-10	-11	-2.3	-1	-5	-2.1	i	0.3	-3	-21
O=C(OCC(=O)N1CCCC1)c1ccc(S(=O)(=O)Nc2ccccc2)cc1	19	-5	-0.9	-1	-1	0.0	.	-3.4	-19	4
CC(=O)c1cccc(NC(=O)CSc2ccc(-c3ccco3)nn2)c1	-14	-6	2.0	16	64	-1.4	i	-5.8	15	-2
COc1ccc(-n2c3c(cc(C(=O)N4CCCCC4)c2=O)C(=O)CC(C)(C)C3)cc1	.	.	.	-4	8	0.5	.	.	-17	2
COC(=O)c1ccccc1NC(=S)NC(=O)C1CCCCC1	.	.	.	-5	.	-1.6	.	.	1	-20
O=C(Oc1ccccc1C(=S)N1CCCCC1)c1cc([N+](=O)[O-])cc([N+](=O)[O-])c1	.	.	.	-12	-25	5.6	.	.	-12	1
Further compounds.
SMILES	Ecoli rRNA inh	Ecoli rRNA inh OD600	Ecoli rRNA inh RFP	Beta cell apopt	ALR H2O2 inh	RanGTP-Imp inh	FGF22 binding	AF4-AF9 inh	T cruzi repl	Calb FLC
CCOC(=O)/C=C/C(=O)OCC(=O)NCc1ccccc1	6	3	-1.7	-4	62	.	i	0.0	-23	.
Cc1ccc(C(=O)Nc2c3c(nn2C(C)(C)C)CS(=O)(=O)C3)cc1[N+](=O)[O-]	6	9	-0.8	0	-3	-1.0	i	-2.1	-8	-1
O=C1CCC(C(=O)N2CCCC2)CN1CCc1cccc(F)c1 (stereo not given)	4	13	1.0	-13	-3	-1.6	i	-2.1	-11	8
Cc1ccc(Cl)c(OC(=O)Cn2cnc3c2c(=O)n(C)c(=O)n3C)c1	7	7	-0.5	-6	8	1.6	.	-4.5	-9	1
Cc1ccc(-n2nc(C(=O)NN)c(C)c(C#N)c2=O)cc1Cl	1	12	2.2	2	-28	0.5	i	0.3	8	7
COc1cc(N)ccc1-c1cc2ccccc2oc1=O	10	8	-0.4	6	60	-1.3	i	1.1	15	3
O=C(NCCc1ccco1)C(=O)NCC1OCCCN1S(=O)(=O)c1ccc(Cl)cc1 (stereo not given)	-5	-4	5.4	-6	-1	1.4	i	3.1	-12	3
NS(=O)(=O)c1ccc(NC(=O)CSc2nc3ccccc3[nH]2)cc1	-5	10	8.7	1	-10	-1.5	i	-5.3	3	8
O=C(Nc1ccc(F)cc1F)N1CCN(C(=O)c2ccco2)CC1	6	2	-1.2	0	-3	.	i	-1.3	-4	.
CCOc1cccc(/C=N/NC(=S)Nc2ccccc2[N+](=O)[O-])c1O	2	-2	0.3	70	36	3.3	i	-6.1	5	-20
O=C(N/N=C/c1cccnc1)c1cc(-c2ccc(Cl)cc2)nc2ccccc12	8	12	2.2	7	2	-1.4	i	-0.1	14	23
Cc1nn(CC(O)CN2c3ccccc3Sc3ccccc32)c(C)c1Br (stereo not given)	.	.	.	-3	1	1.2	.	.	.	8
COc1ccc(N(CC(=O)NC(C)(C)C)C(=O)c2ccco2)cc1	.	.	.	5	-37	0.6	.	.	3	2
CCCCOc1c(Cl)cc(C(=O)N(C)CC(=O)Nc2ccc(N3CCOCC3)cc2)cc1OCC	6	9	-1.8	5	-4	1.0	i	-0.1	8	-2
Cc1cc(C)cc(NC(=O)C2CCCN(S(=O)(=O)c3cnc[nH]3)C2)c1 (stereo not given)	2	-7	-0.1	.	42	4.3	i	-2.6	-1	9
O=C(Nc1ccc(-c2csc(-c3ccccc3)n2)cc1)c1ccccc1Cl	22	24	2.0	.	-2	4.6	.	.	62*	15
CCOC(=O)N1CCC(NC(=O)CS(=O)(=O)Cc2nc(-c3ccccc3C)oc2C)CC1	9	0	-5.9	-5	.	1.6	i	-1.0	7	23
Cc1nc2ccccc2c(=O)n1CCCO	.	.	.	0	-45	-3.3	.	.	-4	-2
CC(Oc1ccccc1)c1ccn[nH]1 (stereo not given)	10	7	-2.6	1	-2	?	i	-0.9	-5	10
CC12CCC(C(=O)Nc3ccccc3-n3cccc3)(CC1=O)C2(C)C (stereo not given)	-4	-10	-1.7	-1	.	0.2	i	5.5	-7	-4
CN1CCC(N(C)C(=O)c2ccc(Cl)c(S(=O)(=O)Nc3cc(Cl)ccc3Cl)c2)CC1	0	-12	-5.7	-3	-2	.	i	-1.5	.	.
O=[N+]([O-])c1ccc(N2CCN(c3ccccc3O)CC2)c(Cl)c1	.	.	.	6	45	3.6	.	.	4	-14
Nc1c(N2CCOCC2)cc(Cl)c2nonc12	.	.	.	1	.	?	.	.	-24	21
COc1ccc2nc(NC(=O)C3CCN(S(=O)(=O)c4cccs4)CC3)sc2c1	.	.	.	3	-8	-3.7	.	.	32	23
CCC(C)Cn1c(C)nc2ccccc21 (stereo not given)	.	.	.	-2	0	-1.7	.	.	-11	-2
Following part.
SMILES	Ecoli rRNA inh	Ecoli rRNA inh OD600	Ecoli rRNA inh RFP	Beta cell apopt	ALR H2O2 inh	RanGTP-Imp inh	FGF22 binding	AF4-AF9 inh	T cruzi repl	Calb FLC
Cc1ccc(S(=O)(=O)Nc2ccc(NC(=O)c3c(F)c(F)c(F)c(F)c3F)cc2)cc1	-26*	1.0*	8.6*	5	-17	-3.8	i	-2.7	9	66
c1ccc2c(c1)OCC(c1csc3ncnc(N4CCOCC4)c13)O2 (stereo not given)	.	.	.	1	-6	0.6	.	.	-2	-8
O=C(NCc1cccnc1)C1CCN(S(=O)(=O)N2CCOCC2)CC1	.	.	.	-1	-5	-3.4	.	.	-7	-2
CC(C)N(Cc1nc2ccccc2[nH]1)C(C)C	10	16	-2.1	5	-7	1.5	i	0.8	-11	-5
COc1ccc(/C(C)=N/OCC(=O)Nc2nc3ccccc3s2)cc1	.	.	.	1	-12	2.9	.	.	-11	-7
C=C(C)C1CC=C(C)/C(=N/NC(=O)CCC(=O)Nc2ccccc2Cl)C1 (stereo not given)	8	8	0.4	-3	9	-1.5	i	-3.5	15	-2
CCOC(=O)CC(=O)Nc1ccn[nH]1	10	6	2.6	-2	-3	-2.7	i	-1.0	-4	-1
CC(Sc1ccc(Cl)cc1)C(=O)NNC(=O)c1ccccc1O (stereo not given)	-15	-22	0.5	.	14	2.4	i	-1.0	-4	-2
COC(=O)c1cc2sccc2n1Cc1nc(-c2cccc(Cl)c2)oc1C	4	6	2.6	23	-8	3.0	i	-1.5	22	-3
O=C(NNC(=O)c1ccc(Br)cc1)c1ccncc1	-1	4	-2.3	1	2	7.6	i	-5.1	-24	14
Cc1ccc(S(=O)(=O)N(C)Cc2ccc(C(=O)N/N=C/c3ccc(OC(F)F)cc3)cc2)cc1	16	5	-0.7	4	-8	0.7	i	1.4	23	7
CN(CCC1CCOCC1)C(=O)C1CCC(=O)N(CCc2cccc(F)c2)C1 (stereo not given)	4	13	3.2	-12	-5	4.3	i	-6.0	-2	4
CCOC(=O)C1C(=O)Oc2ccc3ccccc3c2C1C1CCOC1=O (stereo not given)	0	2	0.3	-1	7	-1.1	i	5.4	0	20
CCOC(=O)c1[nH]c(CN2CCN(c3ccc(OC)cc3)CC2)c(C(=O)OCC)c1C	1	-4	-1.2	8	27	-1.2	i	14	24	0
CCOc1ccc(S(=O)(=O)Nc2ccc(C(=O)NCCCN3CCCC3=O)cc2)cc1	9	2	0.2	-4	-1	.	i	0.2	3	0
COc1ccc(C(=O)NC2CCCc3ccccc32)cc1 (stereo not given)	1	3	-1.2	3	.	-2.0	i	0.1	-6	6
CSCC[C@H](NC(=O)Nc1ccc(S(N)(=O)=O)cc1)C(=O)O	13	12	-2.2	-6	-1	-1.7	i	0.8	-13	-9
O=C(NC1CCCC1)C(c1ccsc1)N(C(=O)Cc1cccs1)c1ccc(F)cc1 (stereo not given)	.	.	.	0	.	-2.6	.	.	7	-4
CCOc1cc2c(Cl)ncnc2c(OCC)c1OCC	-2	-4	1.6	.	-1	0.3	i	1.0	-7	4
NNc1nc2ccccc2c(=O)n1Cc1ccccc1	0	6	-5.1	-6	34	-1.6	i	-5.9	-19	8
